Screening results deposited in PubChem by Southern Research Specialized Biocontainment Screening Center.
Mtb bLac sens: beta-lactam sensitization of Mtb H37Rv | M. tuberculosis H37Rv growth with meropenem, percent inhibition; hits of this screen are not shown here | inhibition, % at 25 µM | 330,000 compounds, 0.27% hits;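 active = about 74% or more and at least 40 points above the plate without the antibiotic, then above 30% in a dose series; inconclusive = first-round hits that could not be retested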;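 note: growth measured after seven days incubation then overnight dye step; 0% = bacteria only wells and 100% = bacteria with antibiotic; twin plates without the antibiotic show which effects depend on it; some results filed as inactive read as strong as hits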
Numbers without * were called inactive; u = inconclusive.

structure,Mtb bLac sens
C[C@H](CO)N1C[C@H](C)[C@@H](CN(C)S(=O)(=O)c2cccs2)Oc2ccc(NS(=O)(=O)c3cn(C)cn3)cc2C1=O,-0.1
CCN(Cc1ccc2c(c1)OCCO2)S(=O)(=O)c1ccc(NC(C)=O)cc1,-9.9
CC1CCCCC12NC(=O)N(CC(=O)OCC(=O)Nc1ccc(F)cc1[N+](=O)[O-])C2=O (stereo not drawn),0.2
CC(C)(C)OC(=O)N1CCC[C@@H]1CO,-0.7
COc1ccc(N2CCN(C(=O)COC(=O)c3ccc(CSC)o3)CC2)cc1,-9.6
CC(=O)NC(CC(=O)Nc1ccc(S(=O)(=O)NC2=NCCCCC2)cc1)c1ccccc1 (stereo not drawn),-2.9
COc1ccc2nc(-c3ccccc3)cc(C(=O)N3CCC3)c2c1,4.0
CC(C)n1nccc1NS(=O)(=O)c1ccccc1,-4.6

The listing continues:
structure,Mtb bLac sens
NC(=O)C1CCN(CC(=O)Nc2ccc3c(c2)OCCO3)CC1,4.8
O=C(O)CCSSCCC(=O)O,-2.5
CC(C)C[C@H](NC(=O)[C@H](Cc1ccccc1)n1c(=O)[nH]c2ccccc2c1=O)C(=O)N1CCC[C@@H]1C(=O)O,-6.1
Cc1cc(C(=O)NNC(=O)C(C)(C)Oc2ccc(Cl)cc2)c(C)o1,-1.4
O=C(CN1C(=O)C(=O)N(C2CCCC2)C1=O)Nc1ccc(Cl)cc1C(F)(F)F,-11.7
COc1cc(/C=C/[N+](=O)[O-])ccc1OC(=O)c1cc2ccccc2oc1=O,0.8
COc1ccccc1N1CCN(CC(=O)Nc2ccnn2C2CCCC2)CC1,-11.9
Cc1nc(SCC(=O)Nc2ccc(S(=O)(=O)N3CCOCC3)cc2)c2c(C)c(C)sc2n1,-2.1

(list continues)
structure,Mtb bLac sens
O=C(COC(=O)c1ccc(Br)o1)NC1CCCc2ccccc21 (stereo not drawn),2.8
CCOC(=O)C1CCN(C(=O)c2cccc(S(=O)(=O)N3CCc4ccccc43)c2)CC1,-1.4
O=C(NC(=S)N1CCCC(C(F)(F)F)C1)c1ccc(F)cc1 (stereo not drawn),91.5
Cn1nc(N2CCN(S(=O)(=O)c3ccccc3)CC2)c(=O)n(C)c1=O,-0.3
O=C(CCCN1C(=O)NC2(CCCC2)C1=O)Nc1ccc(F)cc1,1.1
CN(C(=O)c1ccco1)c1nc(-c2ccc(F)cc2)cs1,0.1
O=C(c1ccc2c(c1)OCO2)N1CCN(S(=O)(=O)c2ccc(Br)cc2Cl)CC1,-7.5
CCOC(=O)C(=O)N1CCN(c2nc(-c3ccc(Cl)cc3)cs2)CC1,74.1

New compounds follow
structure,Mtb bLac sens
CC1CN(S(=O)(=O)c2cccc(C(=O)NCC3COc4ccccc4O3)c2)CC(C)O1 (stereo not drawn),1.5
CN(Cc1ccc2c(c1)OCO2)C(=O)c1cc(-c2ccccc2)c(N2CCOCC2)s1,1.0
COC(=O)C1=C(c2ccccc2OCc2ccccc2)C[C@@H]2CC[C@H]1N2C(=O)NCCN1CCOCC1,-6.9
Cn1nc(C(=O)NCC2COc3ccccc3O2)c2ccccc2c1=O (stereo not drawn),2.3
Cc1nc(SCC(=O)N2CCNC2=O)c2ccccc2n1,2.2
COc1cc(Cl)c(C)cc1NC(=O)CC1CCCC1,5.1
O=[N+]([O-])c1cccc(S(=O)(=O)N2CN(c3ccc(Br)cc3)c3nc4ccccc4nc32)c1,5.5
Cc1cc(-n2c(C)cc(C(=O)CN3C(=O)C(=O)N(C)C3=O)c2C)no1,-3.3

(cont.)
structure,Mtb bLac sens
C/C=C(\C)C(=O)OC1CC(C)(C)C[C@H]2C3=CC[C@@H]4[C@@]5(C)CCC(O[C@@H]6O[C@@H](C(=O)O)[C@@H](O)C(O[C@@H]7OC[C@H](O)[C@@H](O)[C@@H]7O[C@@H]7OC(CO)C(O)[C@@H](O)[C@@H]7O)C6O[C@@H]6OC(CO)C(O)C(O)C6O)[C@@](C)(CO)[C@@H]5CC[C@]4(C)[C@]3(C)CC(O)[C@@]12CO (stereo partly drawn),-9.0
Cc1ccnc(NS(=O)(=O)c2ccc(NC(=O)CC(C)c3ccccc3)cc2)n1 (stereo not drawn),6.5
COCCN(C(=O)c1sc2ccccc2c1Cl)c1c(N)n(CC(C)C)c(=O)[nH]c1=O,1.0
NS(=O)(=O)c1ccc(NC(=O)COC(=O)c2ccc(S(=O)(=O)N3CCOCC3)cc2)cc1,4.5
CCOc1ccccc1N1CCN(CC(=O)Nc2ccnn2C2CCCC2)CC1,-0.7
CCOC(=O)c1ccc(NS(=O)(=O)c2c(C)n[nH]c2C)cc1,20.1
CC1(C)CC(=O)C=C(c2cccc(Br)c2)C1,-2.8
O=C(Cc1ccsc1)Nc1ccc2c(c1)OCO2,-7.3

Continuation.
structure,Mtb bLac sens
O=C(Nc1ccc(F)cc1)C(c1ccccc1)N1CCN(CC(=O)N2CCCC2)CC1 (stereo not drawn),2.5
C=CC[C@H](CC(=O)NCCO)C(=O)NC[C@@H](OC(=O)[C@H](CC=C)CC(=O)OC(C)(C)C)c1ccccc1,-2.7
O=C(Cn1c(=O)cnc2ccccc21)NNC(=O)c1ccccc1Cl,-4.6
COc1ccc(O)c(C(=O)c2cnn(C(=O)c3ccc(C)cc3)c2)c1,11.5
COc1cccc(-c2ccc3ncnc(NCc4cccnc4)c3c2)c1,14.3
Cc1ccc(NC(=O)c2nc[nH]c2C(=O)NCCCCCNC(=O)OC(C)(C)C)cc1,98.6
O=C(NCc1cccc(F)c1)c1cccc2c1C(=O)c1ccc(N3CCC(Cc4ccccc4)CC3)cc1S2(=O)=O,-2.7
CC1CCCN(C(=O)c2ccc(Cl)c(S(=O)(=O)N3CCCCCC3)c2)C1 (stereo not drawn),-12.0

Quoted from above, 3 compounds:
structure,Mtb bLac sens
O=C(Nc1ccc(F)cc1)C(c1ccccc1)N1CCN(CC(=O)N2CCCC2)CC1 (stereo not drawn),2.5
C=CC[C@H](CC(=O)NCCO)C(=O)NC[C@@H](OC(=O)[C@H](CC=C)CC(=O)OC(C)(C)C)c1ccccc1,-2.7
O=C(Cn1c(=O)cnc2ccccc21)NNC(=O)c1ccccc1Cl,-4.6

Next part.
structure,Mtb bLac sens
NC(=O)c1ccsc1NC(=O)COC(=O)C1=NNC(=O)CC1,4.3
O=C(OCC#CCSc1nnc(-c2cccc3ccccc23)o1)c1ccc(F)cc1,1.8
CC1C2Cc3ccc(O)cc3[C@]1(C)CCN2CCc1ccccc1 (stereo partly drawn),-1.9
CN(C(=O)COC(=O)COc1ccc2ccccc2c1)c1c(N)n(Cc2ccccc2)c(=O)[nH]c1=O,3.0
Cc1cc(O)c2c(c1O)C(=O)[C@]13C(=C2O)C(=O)[C@@H]2[C@@H](O)[C@H]1[C@@H]1[C@H](O)[C@H]3C(=O)C3=C(O)c4c(O)cc(C)c(O)c4C(=O)[C@]312,60.0
Cc1cccc(NC(=O)CN2CCN(CC(=O)NCc3ccc(Cl)cc3Cl)CC2)c1C,2.4
CCOC(=O)C1(CCOc2ccccc2)CCN(Cc2ccc(O)cc2)CC1,5.9
COC(=O)C1=CN(Cc2ccc(OC)c(OC)c2)C=C(C(=O)OC)C1c1cccc(F)c1,-10.0

(further entries)
structure,Mtb bLac sens
O=C(c1ccc(F)cc1)N1CCN(C2=NS(=O)(=O)c3ccccc32)CC1,1.7
CC(C)n1nccc1NC(=O)COC(=O)c1ccc(NC(N)=O)cc1,-7.5
CN(CC(=O)NCc1ccc(F)cc1)Cc1ccc(Br)cc1,-2.3
CC(=O)c1ccccc1NC(=O)COc1ccc(N(C)S(=O)(=O)c2ccc(C)c(C)c2)cc1,3.3
CCN(CC)S(=O)(=O)c1ccc(N2CC(C(=O)NC3(C)CCS(=O)(=O)C3)CC2=O)cc1 (stereo not drawn),-4.8
O=C(OCC(=O)N1CCN(C(=O)c2ccco2)CC1)c1ccc(Cl)c(Cl)c1,u
CCCN(C(=O)c1cc(S(=O)(=O)N(C)c2ccc(OCC)cc2)ccc1C)C1CCS(=O)(=O)C1 (stereo not drawn),-1.1
Nc1ccc2ncccc2c1N,4.1

Carrying on.
structure,Mtb bLac sens
CCN(CC(=O)Nc1ccccc1OC)C(=O)CSCc1ccc(C)cc1,-3.8
COc1ccccc1NS(=O)(=O)c1cccc(C(=O)NCC(c2cccs2)N2CCOCC2)c1 (stereo not drawn),-9.9
Cc1ccc(C)c(OCCC(=O)N(C)CC(=O)Nc2c(C)cccc2C)c1,-1.8
COc1cccc(NC(=O)CN(C)C(=O)c2ccccc2-c2nc3ccccc3s2)c1,-4.6
COc1ccc(CN(C)CC(=O)Nc2ccccc2C(=O)NC2CC2)cc1,4.4
Cc1cccc(NC(=O)C2CCN(S(=O)(=O)c3cccc4nonc34)CC2)c1,1.6
COC(=O)C1=C(C)N(Cc2ccccc2)C(=NCc2ccc(OC)cc2)N[C@H]1c1ccccc1,95.2
COc1ccc(C(=O)NCCc2ccc(Cl)cc2)cc1S(=O)(=O)N1CCCCC1C (stereo not drawn),-4.6

(list continues)
structure,Mtb bLac sens
C=CCN(Cc1ccc(Cl)s1)C(=O)CNC(=O)CNC(=O)c1ccc(Cl)cc1Cl,-12.6
COc1ccc([C@@H]2CC=C(C(=O)O)[C@H](c3ccccc3F)N2S(=O)(=O)c2ccc(C)cc2)cc1OC,6.8
O=C(NCc1ccccc1CN1CCCC1)c1cccc(S(=O)(=O)Nc2ccc(F)cc2)c1,-2.9
CC1CCC(NC(=O)C2CCN(C(=O)Nc3ccccc3)CC2)CC1 (stereo not drawn),0.7
CCCCn1c(N)c(N(CCOC)C(=O)Cn2c(=O)cnc3ccccc32)c(=O)[nH]c1=O,-7.7
CSc1ncccc1C(=O)OC(C)C(=O)Nc1cccc(S(=O)(=O)N2CCOCC2)c1 (stereo not drawn),-4.1
Cc1ccc(S(=O)(=O)N2CCN(S(=O)(=O)N3CCC(C)CC3)CC2)c(C)c1,-9.9
COc1cc(-c2nc3ccc(C)cn3c2NCc2ccccc2)ccc1-c1cccc(Cl)c1,26.1

(listing goes on)
structure,Mtb bLac sens
COc1ccc(NC(C)C(=O)Nc2cccc(S(=O)(=O)N3CCOCC3)c2)cc1OC (stereo not drawn),-5.0
CCOC(=O)c1[nH]c(C)c(C(=O)OCC(=O)N(Cc2ccccc2)C(C)C)c1C,-3.1
Cc1ccc(CNC(=O)COC(=O)c2ccc(Br)o2)cc1,9.5
COc1ccc(C(C)(C)C)cc1NC(=O)COC(=O)C1=NNC(=O)CC1,0.5
CC(NC(=O)c1ccccc1)C(=O)OCn1nnc2ccccc2c1=O (stereo not drawn),9.2
COc1ccc(NC(=O)COC(=O)CNS(=O)(=O)/C=C/c2ccccc2)cc1OC,-6.2
CCC1(CC)NC(=O)N(CC(=O)Nc2ccc(OCc3ccccc3)cc2)C1=O,-5.2
Cc1nn(-c2ccccc2)nc1C(=O)OCC(=O)N1CCCCC1C (stereo not drawn),53.3

Continued.
structure,Mtb bLac sens
Cc1ccc(S(=O)(=O)c2nc(-c3cccs3)oc2N2CCC(C(N)=O)CC2)cc1,-7.7
O=C(CSc1nncs1)NNC(=O)c1ccccc1Br,-4.9
N#CN1CCC(NS(=O)(=O)c2ccc(C(F)(F)F)cc2)CC1,0.1
COc1ccc(OC)c(S(=O)(=O)N2CCN(C(=O)c3cc(C4CC4)nn3-c3ccccc3)CC2)c1,6.2
COc1ccc(CCNCC(=O)Nc2c(C)cc(C)cc2C)cc1OC,-16.5
CC(C)[C@H](NC(=O)c1ccccc1)C(=O)NC1=NCCS1,-0.7
O=C(CCl)N1CCN(S(=O)(=O)Cc2ccccc2)CC1,-0.1
Cc1ccc(OCCNC(=O)c2cc(C3CC3)nc3c2cnn3C(C)C)cc1,-0.5

Remaining list, next part
structure,Mtb bLac sens
COc1ccc(C(=O)NCCNc2ccc([N+](=O)[O-])cc2)cc1OC,4.8
O=C(Nc1cccc2c1C(=O)NC2=O)c1ccccc1[N+](=O)[O-],-6.2
CN(Cc1ccc2c(c1)OCCO2)C(=O)CSc1ncnc2sccc12,-1.6
CCN(CC)CCCNC(=O)c1ccc(S(=O)(=O)Nc2ccc(C)c(C)c2)cc1,2.3
CCCC(NC(=O)C(C)N1CCN(S(=O)(=O)c2ccccc2)CC1)c1ccccc1 (stereo not drawn),-3.3
CCN(CC)Cc1c(O)ccc2c(=O)c(-c3ccccc3OC)coc12,1.3
N#CCCNS(=O)(=O)c1ccc(C(=O)OCC(=O)Nc2ccc3c(c2)OCO3)cc1,-2.2
CN(C)/N=C1\C(=O)N(CN2CCN(c3ccccc3)CC2)c2ccccc21,5.2

Next part:
structure,Mtb bLac sens
COc1cc(/C=C(\CCC(=O)O)c2nc3ccccc3s2)ccc1OCC(=O)Nc1c(Cl)cccc1Cl,-4.7
CCC(OC(=O)C(CC(C)C)NC(=O)c1ccccc1)C(=O)Nc1nnc(C)s1 (stereo not drawn),-1.5
Cc1cc(NC(=O)CSc2nnc(C(F)(F)F)n2C)no1,-0.8
O=C(CN1C(=O)NC2(CCOc3ccccc32)C1=O)NCCc1ccccc1 (stereo not drawn),0.3
Cc1cc(NC(=O)COC(=O)Cn2[nH]c(=O)c3ccccc3c2=O)c([N+](=O)[O-])cc1C,0.9
Cc1ccc(CNC(=O)COC(=O)C2CC2)cc1,11.3
Cc1c(CCOC(=O)c2ccc(Cl)cc2Cl)sc[n+]1CC(=O)c1ccccc1,24.4
COc1ccc(CCNC(=O)COC(=O)CCC(=O)c2cccs2)cc1OC,-6.3
O=C1NCCn2nc3ccccc3c21,-3.3
COC(=O)C1CCN(C(=O)CN2C(=O)NC(CC(C)C)C2=O)CC1 (stereo not drawn),1.3
O=C(Nc1ccc(C(=O)N2CCOCC2)cc1)c1cccc(Br)c1,u

An excerpt; rates above refer to the full screens.
